VACV E9 pol inh: inhibitors of vaccinia virus processive DNA synthesis (E9 polymerase); in vitro processive DNA synthesis, absorbance read-out; hits give low values; some inactives read as strong as hits; normalized absorbance, % (concentration not given with the values); 46,000 compounds, 0.94% hits; AID 493162;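 active = replicate mean up to 90% and picked by the depositor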;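 also: 100% = median of the test wells of a plate; 100 nL library stock went into each well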
* hit, by the source's call.

SMILES | VACV E9 pol inh
O=c1cccc2n1CC1CC2CN(CCO)C1 (centres undefined) | 100
COc1ccc(OC)c(-n2c(=S)[nH]c3cc(C(=O)N4CCC(C(N)=O)CC4)ccc3c2=O)c1 | 110
CC(C)Oc1ccc(C(CC(N)=O)CC(=O)O)cc1 (centres undefined) | 97
CC1CCCCN1CCCNC(=O)Cn1ncc2ccc(Cl)cc21 (centres undefined) | 96
CCc1ccc(-c2nc(N)sc2CC(=O)O)cc1 | 103
COc1ccc(S(=O)(=O)N2CCNCC2)cc1OC | 101
CC(C)(C)C(=O)Cn1nnc(N2CCOCC2)n1 | 108
CSc1nc(N)n(-c2cc(Cl)cc(Cl)c2)n1 | 110
CCC(=O)NCc1ccc2c(c1)cc(C)n2C | 99
Cc1coc2cc3oc(=O)c(-c4ccccc4)cc3cc12 | 85
OC(COCc1cccs1)CN1CCCCCC1 (centres undefined) | 103
C[N+]1(CCOc2ccccc2)Cc2ccccc2C1 | 100
Clc1ccc(Cn2nnc(-c3ccccc3)n2)cc1 | 97
CN(Cc1ccccc1)S(=O)(=O)c1ccc2c(c1)SCC(=O)N2 | 98
Cc1ccc(Nc2nc(N)nc(CN3CCC(Cc4ccccc4)CC3)n2)cc1 | 116
Nc1nc(-c2ccccc2)c(C(=O)Nc2ccccc2)s1 | 102
CC1CC(NC(=S)Nc2ccc(I)cc2F)CC(C)(C)C1 (centres undefined) | 99
Cc1cc(C)c(N=Cc2sccc2C)c(C)c1 | 100
Nc1nc(-c2sccc2Cl)cs1 | 95
NC(=O)N1c2ccccc2C=Cc2ccccc21 | 100
Cc1csc(NC(=O)c2cc[n+]([O-])cc2)n1 | 98
O=C(Nc1nccs1)c1cccc(S(=O)(=O)N2CCCCC2)c1 | 100
O=C(NCC12CC3CC(C1)CC(CNC(=O)C(F)(F)F)(C3)C2)C(F)(F)F | 101
CCOc1ccccc1C(=O)Nc1cccc(C)c1 | 100
COc1ccc(C(C#N)N2CCCCC2)cc1OC (centres undefined) | 100
Cc1nc2ccccc2c(C)c1CC(=O)O | 93
CC1=Nc2ccccc2/C1=C/c1sc(=O)n(-c2ccccc2)c1O | 100
CN(C(=O)c1ccccc1)c1nc2ccccc2s1 | 94
N#Cc1cnn(C(N)=S)c1N | 98
COc1ccc(C2=NC(c3ccncc3)=Nc3ccc(C(C)C)cc3N2)cc1OC | 92
Cc1cc(C)c(C(N)=O)c(SCC(=O)c2ccc(Cl)cc2)n1 | 101
Nc1ccc(C23CC4CC(CC(C4)C2)C3)cc1 | 100
O=C(COc1ccccc1Cl)N1CCOCC1 | 106
CN1C/C(=C\c2ccccc2)C(=O)/C(=C/c2ccccc2)C1 | 119
CNC(=O)c1c(O)c2ccccc2n(C)c1=O | 98
COc1ccc(C2=NN3COc4ccccc4C3C2)cc1 (centres undefined) | 100
CC(C)C(=O)Nc1c2c(nn1-c1ccc(Oc3ccccc3)cc1)CSC2 | 100
CSc1ccc(/C=N/N(C)S(=O)(=O)c2ccc(C)cc2)cc1 | 99
C/C(=C\c1ccccc1)c1ccc2c(c1)CCN2C | 100
NC(=O)C1CCN(C(=O)C2C3CCC(C3)C2C(=O)O)CC1 (centres undefined) | 106
Cc1ccccc1C(=O)Nc1scc(CC(C)C)c1C(=O)O | 96
COc1cc(C(CC(=O)O)CC(=O)N2CCC(n3cccc3)CC2)cc(OC)c1OC (centres undefined) | 85
COc1ccc(NC(=O)CCCC(=O)O)c(OC)c1 | 100
Cc1[nH]c2ccccc2c1C(=O)COc1ncnc2ccccc12 | 107
C=CCn1c(=O)c(C(=O)Nc2cccc(O)c2)c(O)c2ccccc21 | 100
S=C1NCN(Cc2ccccc2)CN1Cc1ccccc1 | 100
O=C(C1=COCCO1)N1CCN(c2nc3ccccc3s2)CC1 | 98
O=C(ON(Cc1c(F)cccc1Cl)Cc1c(F)cccc1Cl)c1cccs1 | 105
CN(C)N1C(N)=C(C#N)C(c2ccccc2)C2=C1CCCC2=O (centres undefined) | 100
COC(=O)c1sccc1OC(=O)c1nn(-c2ccccc2)nc1C | 100
CCOC(=O)c1ccc(C[N+]2(C)CCOCC2)o1 | 100
O=C(Nc1nccs1)c1ccc(F)cc1 | 101
CCCc1ccc(OCc2ccc(C(=O)NCc3cccnc3)o2)c(OC)c1 | 100
O=C(O)C1CCCN(S(=O)(=O)c2ccccc2)C1 (centres undefined) | 100
COc1cccc(C(=O)NC(C)C(c2cccs2)N2CCOCC2)c1 (centres undefined) | 101
N#Cc1ccc(Cl)cc1N=Cc1ccc2ncccc2c1 | 99
NC(=O)CSc1c(-c2ccccc2)[nH]c2ccccc12 | 99
Cc1csc(NC(=O)C(C)(C)Br)n1 | 103
CC(C)CC(NC(=O)C(Cc1ccccc1)NC(=O)CNC(=O)CNC(=O)C(N)Cc1ccc(O)cc1)C(=O)O (centres undefined) | 98
Cc1ccc(-c2cc(N)n(-c3ccccc3)n2)cc1 | 100

The list goes on:
SMILES | VACV E9 pol inh
COC(=O)CC(C#N)(c1ccccc1)c1cccc(F)c1C#N (centres undefined) | 92
O=C(O)CCSc1ccccc1 | 87
CSCCC(C(=O)O)N1C(=O)/C(=C/c2ccc(C)cc2)SC1=S (centres undefined) | 91
Cc1cc(C)n2c(Br)c(CN3CCC4(CC3)OCCO4)nc2n1 | 99
CCCCC/C=C\C/C=C\CC1OC1C/C=C\CCCC(=O)O (centres undefined) | 100
CCOC(=O)N1CCN(S(=O)(=O)c2ccccc2)CC1 | 100
CC(=O)Nc1ccc(N=Cc2ccc(OC(=O)c3cccnc3)cc2)cc1 | 100
CCCCOc1cc(C(=O)NCCN(CC)CC)c2ccccc2n1 | 96
C=C(C)CN1CCN(C(c2ccccc2)c2ccccc2)CC1 | 94
CC(C)C(=O)Nc1nc(-c2ccc(Br)s2)cs1 | 101
COC(=O)C1=CN(Cc2ccc(OC)cc2)C=C(C(=O)OC)C1c1ccc(OC)cc1 | 100
CC(=O)N(C)c1ccc(C(O)(C(F)(F)F)C(F)(F)F)cc1 | 100
O=C[C@@H]1CCCN1C(=O)[C@@H]1CCCN1C(=O)OCc1ccccc1 | 100
CC[C@H]1CN2CCC3(C(=O)Nc4ccccc43)C2C[C@@H]1/C(=C\OC)C(=O)OC (some centres undefined) | 99
CC[n+]1oc(C)c2ccccc21 | 100
NN1C(=O)/C(=C\c2ccccc2)SC1=S | 100
Cc1nnc(C(=O)c2ccccc2)o1 | 97
CC1(C)CC(=O)C=C(Nc2sc3c(c2C(N)=O)CCCC3)C1 | 104
COc1ccc(-c2csc3nccn23)cc1 | 94
CCCC1=NN(c2ccccc2)C(=O)/C1=C/c1ccc2c(c1)OCO2 | 100
COC(=O)CC1CC(C)(C)NC(C)(C)C1 | 100
CC1(C)NC(=O)N(CC(O)Cn2c3ccccc3c3ccccc32)C1=O (centres undefined) | 100
COC(=O)c1sccc1-c1ccc(CN2CCCc3cc(OC)ccc32)o1 | 83
O=c1[nH]ncc2c3ccccc3n(Cc3ccc(F)cc3)c12 | 103
O=C(C1CCCN1S(=O)(=O)c1ccc2nc(-c3ccccc3)[nH]c2c1)N1CCOCC1 (centres undefined) | 106
CC1CCCC(C)N1C(=O)c1cc(-c2ccc(Cl)cc2)on1 (centres undefined) | 102
N#Cc1c(SCC(=O)N2CCCCC2)nsc1SCC(=O)N1CCCCC1 | 95
O=C1Nc2ccccc2S/C1=C\C(=O)N1CCN(c2ccccc2)CC1 | 88
COc1cc(C)c(C(C)C)cc1S(=O)(=O)NCCCn1ccnc1 | 104
COc1cc2c(c(OC)c1OC)-c1ccc(O)c(=O)cc1[C@@H](NC(=O)C(F)(F)F)CC2 | 100
COc1ccc2[nH]c3c(=O)[nH]cnc3c2c1 | 104
Cc1cc(C(F)(F)F)nc(SCCNC(=O)Cc2ccc(F)cc2)n1 | 86
O=C(CC(c1ccccc1)c1ccccc1)NCCN1CCOCC1 | 102
CCN1CCCc2cc(CN(CCN3CCOCC3)C(=S)Nc3c(C)cc(C)cc3C)ccc21 | 91
Cn1c(-c2ccccc2)c(C(=O)CC#N)c2ccccc21 | 97
COc1ccc(N(C)C(=O)C2CCN(S(=O)(=O)c3cccc4nsnc34)CC2)cc1 | 92
COc1ccc(N2CCC(CNC(=O)Nc3ccccc3)C2)cc1 (centres undefined) | 97
COc1ccc(S(=O)(=O)N2CCC(n3c(=O)[nH]c4ccccc43)CC2)cc1 | 88
O=C(NCc1ccco1)c1cc(-c2ccc(Cl)cc2)oc1C(F)(F)F | 97
O=C(CO)Nc1c(-c2ccccc2)c2cc(Br)ccc2[nH]c1=O | 101
CCOC(=O)C1CCCN(Cc2nc(N)nc(Nc3ccc(Cl)cc3)n2)C1 (centres undefined) | 101
CSc1ccc(CCNC(=O)c2oc3cc4sc(N(C)C)nc4cc3c2C)cc1 | 101
Cn1c2c(c(=O)n(C)c1=O)CN(CC1CC1)CN2 | 102
CC1=C(C(=O)OC2CC(C)CCC2C(C)C)C(c2ccc(Br)cc2)n2nnnc2N1 (centres undefined) | 100
CC(C)(C)C1=C(C#N)C(c2cccs2)C(C#N)=C(NC(=O)NC(=O)c2c(F)cccc2Cl)O1 (centres undefined) | 92
O=C(CSC1CC(=O)N(c2ccccc2)C1=O)Nc1ccc(Cl)cc1 (centres undefined) | 100
CN1CCN(Cc2cc(Br)cs2)CC1 | 101
CC(=O)Nc1c(C)[nH]n(-c2ccccc2)c1=O | 99
Cc1ccc(NC(=O)c2ccc(S(=O)(=O)N3CCCC3)cc2)cc1 | 96
CN1C(=O)CC[C@H]1c1cccnc1 | 100
CC1=C(C#N)C(c2cc(F)ccc2F)C(C(=O)OCc2ccccc2)=C(N)O1 (centres undefined) | 100
C/C(=N\O)c1ccc2c(c1)CCO2 | 89
Nc1nonc1OCc1ccc2c(c1)OCO2 | 100
CCN(c1cccc(C)c1)S(=O)(=O)c1c(C)[nH]c(=O)[nH]c1=O | 100
CCn1c(C(=O)N2CCC(C(=O)NC3CCCCCC3)CC2)cc2sccc21 | 104
COc1ccc(CNCc2ccc(C)cc2)cc1 | 97
O=C(COc1ccc(Cl)cc1Cl)N(Cc1cccs1)C1CCS(=O)(=O)C1 (centres undefined) | 107
N#Cc1ccccc1NC(=O)COC(=O)C12CC3CC(CC(C3)C1)C2 | 98
CC1(C)CC(=O)C2=C(C1)N1C(=C(C#N)C2c2cccnc2)N=C(N)c2ccccc21 (centres undefined) | 101
O=C1OC2(c3ccc(Br)cc3)C(OC(=O)C23CCCC3)C12CCCC2 (centres undefined) | 100

A few values from above:
`C/C(=N\O)c1ccc2c(c1)CCO2` in VACV E9 pol inh reads 89
`CC1(C)CC(=O)C2=C(C1)N1C(=C(C#N)C2c2cccnc2)N=C(N)c2ccccc21` (centres undefined) in VACV E9 pol inh reads 101

Going on with the list.
SMILES | VACV E9 pol inh
Cc1occc(=O)c1Oc1ncc(C(F)(F)F)cc1Cl | 91
COc1ccccc1NC(=O)Cc1csc(N)n1 | 99
Cc1nccn1CC(C)C(=O)O (centres undefined) | 107
CCN(C(=O)COc1ccc(OC)cc1)C1CCCCC1 | 101
O=C1CN(C(=O)C2CC2)CCN1 | 118
C=CCn1c(CCNC(=O)Cc2ccccc2)nc2ccccc21 | 101
Cc1ccc(C(=O)Nc2nc3c(s2)CCCC3)cc1 | 113
S=C1CCN(Cc2ccccc2)c2ccccc2N1 | 100
Cc1cc(C)c(C(=O)NCCCN2CCOCC2)c(C)c1 | 101
COC(=O)c1cc(=O)n(CCc2ccccc2)c(=NCCc2ccccc2)s1 | 102
N#CNC(=Nc1ccccc1C(F)(F)F)N1CCCC1 | 100
CC/C=C\C/C=C\C/C=C\CCCCCCCCCCCC(=O)O | 99

Given in CSV form: entries from further up.
smiles,VACV E9 pol inh
CC1=C(C#N)C(c2cc(F)ccc2F)C(C(=O)OCc2ccccc2)=C(N)O1 (centres undefined),100
C/C(=N\O)c1ccc2c(c1)CCO2,89
Nc1nonc1OCc1ccc2c(c1)OCO2,100
CCN(c1cccc(C)c1)S(=O)(=O)c1c(C)[nH]c(=O)[nH]c1=O,100
CCn1c(C(=O)N2CCC(C(=O)NC3CCCCCC3)CC2)cc2sccc21,104
COc1ccc(CNCc2ccc(C)cc2)cc1,97
O=C(COc1ccc(Cl)cc1Cl)N(Cc1cccs1)C1CCS(=O)(=O)C1 (centres undefined),107
N#Cc1ccccc1NC(=O)COC(=O)C12CC3CC(CC(C3)C1)C2,98
CC1(C)CC(=O)C2=C(C1)N1C(=C(C#N)C2c2cccnc2)N=C(N)c2ccccc21 (centres undefined),101
O=C1OC2(c3ccc(Br)cc3)C(OC(=O)C23CCCC3)C12CCCC2 (centres undefined),100
Cc1occc(=O)c1Oc1ncc(C(F)(F)F)cc1Cl,91
COc1ccccc1NC(=O)Cc1csc(N)n1,99
Cc1nccn1CC(C)C(=O)O (centres undefined),107
CCN(C(=O)COc1ccc(OC)cc1)C1CCCCC1,101
O=C1CN(C(=O)C2CC2)CCN1,118
C=CCn1c(CCNC(=O)Cc2ccccc2)nc2ccccc21,101
Cc1ccc(C(=O)Nc2nc3c(s2)CCCC3)cc1,113
S=C1CCN(Cc2ccccc2)c2ccccc2N1,100
Cc1cc(C)c(C(=O)NCCCN2CCOCC2)c(C)c1,101
COC(=O)c1cc(=O)n(CCc2ccccc2)c(=NCCc2ccccc2)s1,102

(next part)
SMILES | VACV E9 pol inh
CC(C)Cc1nn(-c2ccccc2)cc1/C=C1\CCC(C2CCCC2)C1=O (centres undefined) | 104
O=C(NCSC1=NCCS1)c1ccccc1 | 99
COc1ccc(-c2noc(=O)n2CC(=O)N2CCC(C)CC2)cc1 | 105
CCOC(=O)c1cccc(C(=O)NC2=CC(=O)CC(C)(C)C2)c1 | 100
Cc1ccc(N=Cc2cc3ccccc3nc2Cl)cc1Cl | 100
Cc1ccc(NC(=O)CC23CC4CC(CC(C4)C2)C3)cc1 | 100
COc1cc2nc(NCCCN(C)Cc3ccccc3)n3nc(-c4ccccc4)nc3c2cc1OC | 103
O=C(NCCN1CCN(Cc2ccccc2)CC1)c1ccc2c(Cl)c3c(nc2c1)CCCC3 | 99
CCOc1ccc(-c2cc3ccccn3c2)cc1 | 102
COc1ccccc1CNS(C)(=O)=O | 98
CC1Cc2ccccc2N1C(=O)COc1ccccc1C#N (centres undefined) | 99
Cc1cc2cc(CNC(=O)CCC(=O)O)ccc2[nH]1 | 100
N#Cc1ccc(C(=O)NC2CCC(NC(=O)c3ccc(C#N)cc3)CC2)cc1 (centres undefined) | 105
CCOc1ccc(C(=O)Nc2nnc(-c3ccccc3)s2)cc1 | 101

Screening results deposited in PubChem BioAssay by ICCB-Longwood Screening Facility, Harvard Medical School.

These rows are one share of the data (hit frequency here may not be typical).
